From PubChem BioAssay
Mtb H37Rv: M. tuberculosis H37Rv growth inhibitors, H37Rv strain (AID 1626) | inhibition, % at 10 µM, or IC50 in µM where a hit was titrated | 220,000 compounds, 0.95% hits | M. tuberculosis H37Rv growth inhibition; higher % means a stronger effect;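 active means confirmed in a dose series; inconclusive means inhibition above 80% but not taken into the dose series; inactive means below 80% or under 30% at every dose of the series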;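 further: bacteria incubated seven days before Alamar blue readout; 0% = bacteria only wells and 100% = bacteria with antibiotic wells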
RecA splice inh: blocks M. tuberculosis RecA intein splicing. cell-free RecA intein splicing, fluorescence. P9WHJ3. AID 2221. inhibition, %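 (about 9 µM by stock and volumes)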. 290,000 compounds, 0.75% hits; in the data active means inhibition above about 30%; inconclusive means no clear call, values can overlap the other calls;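 further: 0% = vehicle wells and 100% = reference inhibitor control wells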
Target sequence (P9WHJ3 whole entry, looked up, canonical isoform): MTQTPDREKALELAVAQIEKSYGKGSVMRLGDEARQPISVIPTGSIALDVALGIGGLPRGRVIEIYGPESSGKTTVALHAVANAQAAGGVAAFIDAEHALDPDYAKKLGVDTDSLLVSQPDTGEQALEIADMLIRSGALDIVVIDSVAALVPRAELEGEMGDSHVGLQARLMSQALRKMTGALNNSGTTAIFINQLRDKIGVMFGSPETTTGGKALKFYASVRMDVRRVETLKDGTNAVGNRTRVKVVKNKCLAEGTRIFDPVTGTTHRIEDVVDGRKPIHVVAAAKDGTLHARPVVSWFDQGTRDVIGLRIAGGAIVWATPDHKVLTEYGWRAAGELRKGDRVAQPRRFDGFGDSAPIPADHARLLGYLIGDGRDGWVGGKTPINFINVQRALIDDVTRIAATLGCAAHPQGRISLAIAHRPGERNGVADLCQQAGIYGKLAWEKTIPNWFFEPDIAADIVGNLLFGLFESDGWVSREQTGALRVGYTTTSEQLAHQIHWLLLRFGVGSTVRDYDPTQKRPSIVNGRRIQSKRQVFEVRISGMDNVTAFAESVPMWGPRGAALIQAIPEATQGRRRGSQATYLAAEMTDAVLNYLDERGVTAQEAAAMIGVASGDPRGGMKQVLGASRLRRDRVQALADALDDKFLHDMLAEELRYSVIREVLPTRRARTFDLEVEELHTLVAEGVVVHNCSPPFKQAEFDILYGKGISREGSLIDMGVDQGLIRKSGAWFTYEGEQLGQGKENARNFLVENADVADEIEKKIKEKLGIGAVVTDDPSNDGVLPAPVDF
YopH PTP inh: YopH (Yersinia) phosphatase inhibition | fluorescence Ex485/Em525 | inhibition, %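 (about 10 µM by stock and volumes)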 | 140,000 compounds, 0.16% hits | AID 898;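 active means inhibition of 50% or more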;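 further: controls were vehicle for no effect and minimum signal wells for full effect; inactives centre near -20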
Arbovirus anti: arbovirus infection inhibition; arbovirus infection cell-based antiviral screen; inhibition, % at 10 µM; 200,000 compounds, 0.37% hits; AID 1251;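 active means inhibition from about 30%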;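 further: bluetongue infection of BSR cells; cell survival read as ATP light after 72 h; 0% = infected wells without compound and 100% = uninfected wells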
Mtb bLac sens: beta-lactam sensitization of Mtb H37Rv. M. tuberculosis H37Rv growth with meropenem, percent inhibition; hits of this screen are not shown here. inhibition, % at 25 µM. 330,000 compounds, 0.27% hits. AID 434955;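 active means about 74% or more and at least 40 points above the plate without the antibiotic, then above 30% in a dose series; inconclusive means first-round hits that could not be retested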;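 further: growth measured after seven days incubation then overnight dye step; 0% = bacteria only wells and 100% = bacteria with antibiotic; twin plates without the antibiotic show which effects depend on it; some results filed as inactive read as strong as hits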
Arbovirus anti repeat: further read-out of Arbovirus anti, marked with its call; inhibition, %; measured here: 10K subset replicate screen; many hits read low in the repeat;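 first of two repeat runs on a subset; 0% = infected and 100% = uninfected wells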
* = called active by the depositor; ? = inconclusive; . = no result given. Some of the compounds tested; rates above refer to the full screens.

SMILES	Mtb H37Rv	RecA splice inh	YopH PTP inh	Arbovirus anti	Mtb bLac sens	others
CC(C)N(C(C)C)S(=O)(=O)c1ccc(NN)nc1	4%	-6.4	.	.	7
COc1ccc(CCNC(=O)c2ccc(N3CCCCS3(=O)=O)cc2)cc1OC	.	0.6	.	.	0
CC1=Nn2c(nnc2-c2n[nH]c3c2CCC3)SC1	3%	-4.0	-49	-3	-3
COc1cc(CC(NC(C)=O)C(=O)NC2CCN(c3nc(OC)nc(OC)n3)CC2)cc(OC)c1 (centres undefined)	.	-1.1	.	.	-2
CCOC(=O)C1CCN(c2c(NCCCN3CCN(Cc4ccccc4)CC3)c(=O)c2=O)CC1	-6%	-5.7	-41	5	-5
COC(=O)c1c(Cc2ccccc2Cl)c[nH]c1C	7%	6.3	-14	3	3
COc1cc(CC(=O)N2CCc3ccccc32)cc(OC)c1OC	-3%	-3.7	-43	10	3
COc1cc(/C=N/NC(=O)c2sc3ccccc3c2Cl)ccc1OC(=O)c1ccc([N+](=O)[O-])cc1	6%	-16	.	.	46
O=C(NNC(=O)C1CC(c2cccnc2)=NO1)Nc1cccc(F)c1 (centres undefined)	.	-1.7	-18	4	-1
C/C(CC(=O)NC1C2CC3CC(C2)CC1C3)=N\NC(=O)Cc1cccs1 (centres undefined)	1%	7.5	-4	7	4
CC(=O)c1c(C)n([O-])c2cc(F)c(F)cc2[n+]1=O	?	-2.5	.	-36	96
O=C(N/N=C/c1ccc(F)cc1)c1ccccc1	4%	-0.4	.	-3	-10
COc1ccc(CNC(=O)CN(C(=O)c2csnn2)c2ccc(C(C)=O)cc2)cc1	.	-1.5	.	.	-1
Cc1cccc(-n2cnc3c(c2=O)c2nc4ccccc4nc2n3Cc2ccco2)c1	2%	-0.6	.	.	18
O=C1CCCc2c1cc(-c1ccccc1)n2-c1ccccc1	5%	1.8	1	-3	7
CCCCNc1cc(C)nc(NCc2ccccc2)n1	8%	6.9	-16	-40	51
CC(C)CC(=O)Nc1ccc(C(=O)NNC(=S)NC(=O)C2CCCCC2)cc1	25%	0.7	-34	-24	12
COc1ccc(C(=O)/C=C2\NCC3c4ccccc4CCN3C2=O)cc1 (centres undefined)	3%	1.7	-24	-2	-4
CC(C)OCCCNC(=O)CN1C(=O)c2cccc3cccc1c23	.	-22	.	.	-2
COc1cc2ccc(=O)oc2c(CC=C(C)C)c1OC	-4%	-2.4	.	.	-9
Cc1ccn2c(c1)nc(=S)n2C(=O)c1ccco1	-6%	-4.7	-5	-7	1
O=C(CCC1CCCN(C(=O)COc2ccccc2)C1)N1CCN(c2ccccn2)CC1 (centres undefined)	0%	0.5	.	-2	-4
O=C(Nc1nc(-c2ccccc2)cs1)NC1CCCCC1	-4%	1.3	-26	7	31
Cc1ccc(CN2CCNC(=O)C2CC(=O)NC2CCCCCC2)o1 (centres undefined)	-4%	-1.1	.	6	-3
COc1ccc(CCNC(=O)CSc2nncs2)cc1	4%	0.8	-23	8	-1

Looked up one by one from the list above, 3 records:
SMILES	Mtb H37Rv	RecA splice inh	YopH PTP inh	Arbovirus anti	Mtb bLac sens	others
CCOC(=O)C1CCN(c2c(NCCCN3CCN(Cc4ccccc4)CC3)c(=O)c2=O)CC1	-6%	-5.7	-41	5	-5
COc1cc(CC(=O)N2CCc3ccccc32)cc(OC)c1OC	-3%	-3.7	-43	10	3
Cc1ccn2c(c1)nc(=S)n2C(=O)c1ccco1	-6%	-4.7	-5	-7	1

(list continues)
SMILES	Mtb H37Rv	RecA splice inh	YopH PTP inh	Arbovirus anti	Mtb bLac sens	others
CN(C)c1ccc(NC(=S)NCC2CCCO2)cc1 (centres undefined)	0%	-3.9	10	7	-5
Cc1cc(C)n2nc(C(=O)OCC(=O)N3CCC3)nc2n1	2%	-1.6	.	5	2
CCOc1ccc2ccccc2c1C(=O)N1CCOCC1	-4%	-4.1	-19	-1	1
Cc1cnc(NC(=O)c2cc3c(C)nn(-c4ccccc4)c3s2)s1	61µM*	-0.7	-11	-12	95
CCC1(c2ccccc2)NC(=O)N(CC(=O)N(C)Cc2c(F)cccc2Cl)C1=O (centres undefined)	.	2.9	.	.	-3
c1ccc2[nH]c(-c3ccc4c(c3)OCO4)nc2c1	.	-0.4	.	.	1
CCCn1c(SCC(=O)NCCc2ccccc2)nnc1-c1ccccn1	-6%	2.8	-19	2	-12
C[C@H](NC(=O)c1ccccc1Cl)C(=O)OC(C(=O)Nc1cc(C(F)(F)F)ccc1Cl)c1ccccc1 (some centres undefined)	2%	-0.2	-16	7	13
O=C(NCCO)C1CCN(S(=O)(=O)c2ccc(F)cc2)CC1	.	0.0	-21	10	-4
O=C(CCl)N(CCc1ccccc1)CCc1ccccc1	.	74*	.	.	99
COc1cc(/C=C2\SC(=O)NC2=O)ccc1Oc1cnccn1	-7%	-0.5	.	-2	1
O=C1c2ccccc2NC(c2ccccc2)N1CCCN1CCOCC1 (centres undefined)	-4%	-2.2	.	.	-6
O=C1OC(NC(=O)c2ccccc2)C(n2cc(CO)nn2)=C1Cl (centres undefined)	-15%	19	-56	12	-2
O=C(NCc1cccs1)c1ccc([N+](=O)[O-])cc1	8%	-2.0	-12	1	6
O=C(O)CSc1nnc(-c2ccc(Cl)cc2Cl)n1-c1ccc(Cl)cc1	.	2.2	.	.	-8
O=C(CCNC(=O)C1CCN(S(=O)(=O)c2ccc(F)cc2)CC1)NCCc1cccc(F)c1	.	-0.1	.	.	0
O=C(N1CCCCCC1)N1CCN(C(=O)N2CCOCC2)CC1	-14%	-0.7	-34	0	-8
COc1ccc(N2C(=O)CC(S/C(N)=N/N=C(\C)c3cccs3)C2=O)cc1 (centres undefined)	-10%	-1.6	-86	7	5
CC1CC(C)CN(c2ccc([N+](=O)[O-])nc2)C1 (centres undefined)	-1%	0.0	.	-14	0
Cc1ccc(Cn2c(SCC(C)C)nc3c2c(=O)n(C)c(=O)n3C)cc1	-4%	.	-9	-10	29
C=CCn1c(SCc2nc3ccccc3c(=O)[nH]2)nc2sc3c(c2c1=O)CCCC3	-10%	-3.4	.	.	-2
CC[C@H](C)[C@H](NC(=O)OCc1ccccc1)C(=O)OCC(=O)N(C)CC(=O)Nc1ccccc1Cl	.	2.9	.	.	-7
COC(=O)c1ccc(COc2cc(C)ccc2C)o1	.	7.1	.	.	5
Cc1ccc(Cl)cc1N1CCN(C(=O)CN(C2CCCCC2)S(C)(=O)=O)CC1	0%	1.6	-6	-2	8
CCn1c(-c2cccn(Cc3ccc(Cl)cc3Cl)c2=O)n[nH]c1=S	5%	-0.2	.	-1	-7
SMILES	Mtb H37Rv	RecA splice inh	YopH PTP inh	Arbovirus anti	Mtb bLac sens	others
CCn1cc(CN2CCC(n3nccc3NC(=O)CCOc3ccccc3)CC2)c(C)n1	.	-1.2	.	.	-3
CN[C@@H](C)[C@@H](O)c1ccccc1	.	1.4	.	.	2
COc1ccc(C2C(C(=O)Nc3cccc(C)n3)c3ccccc3C(=O)N2C)cc1 (centres undefined)	-19%	-0.5	-22	2	-1	Arbovirus anti repeat=-3
Cc1ccc(C(=O)C2=C(O)C(=O)N(Cc3cccnc3)C2c2cccc(Oc3ccccc3)c2)o1 (centres undefined)	.	6.7	.	.	-4
CCOC(=O)C/C(C)=N/NC(=O)CNc1cccc(Cl)c1C	7%	0.6	.	-3	-7
Cc1cccc(N2CC(C(=O)Nc3nnc(SCC(=O)N4CCOCC4)s3)CC2=O)c1 (centres undefined)	.	-0.7	.	.	0
COc1ccc(-c2nc(CSCC(=O)NCC3CCCO3)c(C)o2)cc1OC (centres undefined)	-3%	0.6	-8	12	8
CCCN1CCN(CCCNC(=O)c2ccc(CS(=O)c3ccccc3C)o2)CC1 (centres undefined)	.	-0.4	.	.	2
N#C/C(=C(/O)COC(=O)c1ccccc1O)c1nc2ccccc2s1	4%	-5.2	.	19	-5
O=C(CSc1nnnn1-c1ccc(F)cc1)NC1CCCCC1	-6%	0.7	-10	0	4
O=C(/C=C/c1ccccc1)Nn1cnnc1	-2%	-1.2	-11	3	3
Cc1ccc(N(C(=O)c2ccc3c(c2)OCO3)C2C=CS(=O)(=O)C2)cc1C (centres undefined)	.	0.1	.	.	-3
CCSCc1nnc(SCC(=O)Nc2nccs2)n1CC	-7%	12	.	-2	-9
O=C(CCc1ccccc1)Nc1ccc(NC(=O)C2CCCCC2)nc1	3%	-0.1	.	1	7
CC(C)OCCCNC(=O)c1ccc2c(c1)ncn2C1CCCC1	.	0.6	-26	-3	0	Arbovirus anti repeat=-1
COc1ccc(NC(=O)CSCC(=O)N(C)Cc2c(F)cccc2Cl)cc1	.	-2.4	.	.	-2
Cc1ccc(S(=O)(=O)CCC(=O)NCCC2=CCCCC2)cc1	.	0.7	.	.	-7
Cc1cc(C)nc(NC(=O)c2ccc(OC(C)C)cc2)n1	6%	-2.7	-44	-2	-5
COc1cccc(NC(=S)N2CCN(Cc3ccccc3)CC2)c1	3%	4.6	-32	0	3
CCn1cc(C(=O)NCC(=O)NCCCN2CCOCC2)c(=O)c2cc3c(cc21)OCO3	.	2.4	.	.	-1
COc1ccc(NC(=O)CSc2nc3ccccc3c3nc4ccccc4n23)cc1	1%	.	-30	-14	11
Cc1nc2ncnn2c(C)c1CCC(=O)NC(C)CCc1ccco1 (centres undefined)	0%	0.1	-6	5	5
O=C(CCCNC(=O)c1ccc(Cl)cc1)NCc1ccccc1Cl	.	-0.3	.	.	-7
CCN(CC(=O)Nc1ccc(NC(C)=O)cc1)C(=O)/C=C/c1ccc([N+](=O)[O-])cc1	.	0.2	.	.	1
Cc1ccc(-c2csc(NC(=O)COc3ccc(N(C)S(=O)(=O)c4ccc(C)cc4)cc3)n2)cc1	6%	-3.1	-43	9	3

By substructure, the entries above with a thiophene ring, fused or not (6)
SMILES	Mtb H37Rv	RecA splice inh	YopH PTP inh	Arbovirus anti	Mtb bLac sens	others
COc1cc(/C=N/NC(=O)c2sc3ccccc3c2Cl)ccc1OC(=O)c1ccc([N+](=O)[O-])cc1	6%	-16	.	.	46
C/C(CC(=O)NC1C2CC3CC(C2)CC1C3)=N\NC(=O)Cc1cccs1 (centres undefined)	1%	7.5	-4	7	4
Cc1cnc(NC(=O)c2cc3c(C)nn(-c4ccccc4)c3s2)s1	61µM*	-0.7	-11	-12	95
O=C(NCc1cccs1)c1ccc([N+](=O)[O-])cc1	8%	-2.0	-12	1	6
COc1ccc(N2C(=O)CC(S/C(N)=N/N=C(\C)c3cccs3)C2=O)cc1 (centres undefined)	-10%	-1.6	-86	7	5
C=CCn1c(SCc2nc3ccccc3c(=O)[nH]2)nc2sc3c(c2c1=O)CCCC3	-10%	-3.4	.	.	-2

Following part
SMILES	Mtb H37Rv	RecA splice inh	YopH PTP inh	Arbovirus anti	Mtb bLac sens	others
CC1(C)CC(=O)CC(C)(C)N1OC(=O)c1ccccn1	-6%	0.9	19	2	-16
CC(NC(=O)c1ccco1)c1nc(-c2ccccc2)no1 (centres undefined)	.	-1.6	.	.	2
O=C(Nc1ccccc1Cl)c1ccccc1S(=O)(=O)c1ccccc1[N+](=O)[O-]	30%	-0.4	-20	-1	8
COc1cc(C(=O)Oc2ccccc2/C=N/NC(=O)c2ccc(Cl)cc2)cc(OC)c1OC	-1%	-1.3	-19	-28	18
Cc1cc(C)c(C#N)c(SCc2nnc(-c3ccccc3[N+](=O)[O-])o2)n1	2%	1.8	.	-28	-1
CCN1CCN(C(=O)c2ccc(OCC(=O)Nc3ccc(F)cc3)c(OC)c2)CC1	2%	-0.8	.	16	-5
NC(=O)c1oc2ccccc2c1NC(=O)c1ccco1	7%	.	-17	-13	1
CCOc1cc(/C=C2/C(=N)N3OC(C)=CC3=NC2=O)ccc1OCCOc1ccccc1	-2%	1.2	15	3	1
CCCCNC(=O)CSc1nnc(Cc2ccc(Cl)c(Cl)c2)c(=O)[nH]1	.	4.4	.	.	3
COCCCNC(=O)c1c(N)n(/N=C/c2cccnc2)c2nc3ccccc3nc12	.	-8.8	-39	5	20
O=C(OC(C(=O)NCc1ccc2c(c1)OCO2)c1ccncc1)c1ccc(Cl)nc1 (centres undefined)	3%	-1.9	.	3	-12
CC1CCC/C(=C\Nc2ccc(O)cc2)C1=O (centres undefined)	-13%	-38	-27	-24	1
COc1ccc(/C=N/OCC(=O)Nc2ccc3c(c2)OCO3)c(OC)c1	-3%	0.9	.	-20	-3
CC(Oc1ccc(F)cc1)C(=O)Nc1cc(S(=O)(=O)N2CCCCC2)ccc1N1CCOCC1 (centres undefined)	.	4.9	.	.	-7
CCOC(=O)C1=C(c2ccccc2)N(C)C(=O)NC1c1ccc(OC(F)F)c(OC)c1 (centres undefined)	0%	-2.9	-10	-5	-6
CCc1ccc2nc(N(CCCN(C)C)C(=O)c3ccc(S(=O)(=O)N4CCCc5ccccc54)cc3)sc2c1	.	12	.	.	97
Cc1ccc(S(=O)(=O)N2CCN(C(=O)CC3CCCC3)CC2)cc1	-2%	7.7	-35	11	-7
